ClpP mod: qHTS Assay for Activators of ClpP. ATP-dependent Clp protease proteolytic subunit (Bacillus subtilis (strain 168)), P80244. purified B. subtilis ClpP, FRET peptide cleavage, 20 min. Potency, µM (highest dose often 57.5 µM), without a hit: top-dose activity change, negative = active. 340,000 compounds, 1.9% hits. AID 651965, 2013; active = well fitted falling curve with a large enough effect; inconclusive = small, poorly fitted or top-dose-only effect; inactive = no such curve, though single readings can be large or run the other way; also: potency is read from the fitted curve at half-maximal effect; the source files actives as falling curves though it sought activators and does not explain the sign; nearly all actives have a fitted effect of over 65% in size; many hits overshoot -100%
Target sequence (P80244 whole entry, looked up): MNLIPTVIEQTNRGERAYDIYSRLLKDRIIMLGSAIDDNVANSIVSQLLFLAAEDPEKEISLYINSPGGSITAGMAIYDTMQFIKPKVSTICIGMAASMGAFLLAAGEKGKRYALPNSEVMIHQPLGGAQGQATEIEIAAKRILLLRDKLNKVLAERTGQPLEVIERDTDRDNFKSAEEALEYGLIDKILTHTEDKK
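FRET quenching reversal measured ClpP activation: 10 microg/mL B. subtilis ClpP at pH 8 with the FRET-FV decapeptide, read at 430 nm after 320 nm excitation. The 20-min minus 0-min signal was scaled between DMSO/no-enzyme wells and ADEP (5.8 microM final).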
Menin-MLL FL inh: inhibitors of human menin-MLL interaction, wild-type MLL peptide. Fluorescence polarization, fluorescein-MLL peptide displacement from menin. 290,000 tested, under 10 active. FP activity change, % at 61.4 µM. AID 1766; inconclusive = falling polarisation curve, or a change in total fluorescence; inactive = total fluorescence flat and polarisation flat or rising; no compound was filed as active; the % refers to the polarisation; negative = inhibition;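 also: % of control where 0% means no effect; inhibitors lower the polarisation; unlabelled MLL peptide was the positive control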
gsp ag: activates gsp, the McCune-Albright syndrome mutation; gsp mutant cells, cAMP HTRF, 30 min; control for the full effect not named in the record; Potency, µM (top dose mostly 76.9 µM), inactives show at the top dose activation (cAMP increase), hits mostly activators; 340,000 compounds, 0.13% hits; AID 624287; active = well fitted activation curve with a large enough effect; inconclusive = small, poorly fitted or top-dose-only effect, or another doubt; inactive = no such curve, though single readings can be large or run the other way; cell line not stated here;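 also: phosphodiesterase inhibitor Ro 20-1724 added with compounds to block cAMP breakdown; potency is read from the fitted curve at half-maximal effect; nearly all actives have a fitted effect of over 60% in size; about a fifth of the inactives were tested at one dose only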
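Cells stably selected in G418 were plated at 2000/well, grown 16-24 hr, then given compounds in DMSO with the PDE inhibitor […] (300 uM solution added) for 30 min at 37C; cAMP was read by HTRF.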
Sfp inh: blocks B. subtilis Sfp PPTase activity; Q9F4F7; Biochemical Sfp PPTase activity, qHTS; Potency, µM, for the others: max response, negative = inhibition, usual class: inhibitors; 310,000 compounds, 3.5% hits; active = well fitted inhibition curve with a large enough effect; inconclusive = small, poorly fitted or top-dose-only effect, or another doubt; inactive = no such curve, though single readings can be large or run the other way;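 also: the enzyme is Sfp with the accession as filed and its product quenches rhodamine fluorescence; potency is read from the fitted curve at half-maximal effect; 0% = enzyme reaction without inhibitor and -100% = no enzyme wells; top concentration of the series not given in the record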
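Step 1, compound plus 15 nM Sfp-PPTase, 15 min, room temperature. Step 2, add rhodamine-CoA (5 uM) and BHQ-2-YbbR (12.5 uM). Step 3, read 525/598 nm fluorescence at 0 and 30 min.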
D2 PAM: positive allosteric modulators of human D2 dopamine receptor; DiscoveRx D2 beta-arrestin cells, luminescence, 90 min; 100% = 57 uM dopamine signal; potentiation, % (no concentration beside the values); 360,000 compounds, 0.23% hits; active = potentiation of 50% or more; inconclusive = 30% to 50%; inactive = 30% or less;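 also: compound concentration not given in the record; tested on top of an EC20 dose of dopamine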
Target sequence (P14416 whole entry, looked up): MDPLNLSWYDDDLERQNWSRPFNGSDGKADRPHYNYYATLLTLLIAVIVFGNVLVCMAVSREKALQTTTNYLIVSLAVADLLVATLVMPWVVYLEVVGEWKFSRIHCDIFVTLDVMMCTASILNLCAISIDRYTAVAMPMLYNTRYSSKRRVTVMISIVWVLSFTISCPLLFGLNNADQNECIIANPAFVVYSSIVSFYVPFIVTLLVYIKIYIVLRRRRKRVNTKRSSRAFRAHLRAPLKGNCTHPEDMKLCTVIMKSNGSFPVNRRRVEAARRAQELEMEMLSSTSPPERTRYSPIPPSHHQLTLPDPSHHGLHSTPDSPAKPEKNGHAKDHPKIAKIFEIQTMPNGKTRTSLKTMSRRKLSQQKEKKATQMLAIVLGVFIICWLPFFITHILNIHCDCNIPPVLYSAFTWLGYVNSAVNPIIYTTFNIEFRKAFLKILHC
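PathHunter beta-arrestin assay in DiscoveRx D2 cells. Compounds were added with an EC20 of dopamine (50 nM final) for 90 min at 37 deg C. Luminescence was read 1 h after detection reagent, with 57 uM dopamine as the EC100 control.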
gsp antagonist: antagonists of gsp mutant (McCune-Albright syndrome); gsp-mutant cells, cAMP HTRF, 30 min; control for the full effect not named in the record; Potency, µM (highest dose often 76.9 µM), for the others: at the highest dose activity change, negative = inhibition, actives largely listed as inhibitors; 340,000 compounds, 0.4% hits; active = falling curve of any shape with a large fitted effect; inconclusive = falling curve, mostly with a smaller effect; inactive = flat or rising curve; cell line not stated here;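 also: intracellular cAMP measured with PDE inhibitor Ro 20-1724 present during compound exposure; potency is read from the fitted curve at half-maximal effect; % is scaled to controls: 0 for no effect and ±100 for the full control effect; nearly all actives have a fitted effect of over 65% in size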
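Cells in G418 medium, seeded 16-24 h, 37C; buffer exchange to DPBS + 1 mM CaCl2, 0.5 mM MgCl2, 0.05% BSA; cpds in DMSO + […] (300 uM stock), 30 min 37C; HTRF cAMP detection.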
TRPV1 PAM: human TRPV1 potentiation; TRPV1-expressing cells, Fluo-8 calcium influx, capsaicin EC20 potentiation; host cell line not named in the record; control for the full effect not named in the record; potentiation, % at 8.33 µM; 320,000 compounds, 0.02% hits; active means potentiation above 80%; inconclusive means 30% to 80%; inactive means below 30%; also: 0% is about no effect
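Cells expressing TRPV1 were dye-loaded with Fluo-8 and read kinetically: 10 s baseline, 3 min after compound (agonist portion), then 2 min after EC20 capsaicin (allosteric enhancer portion). Calcium-bound dye fluorescence at 480/520 nm.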
Starred values were filed as active, the others as inactive; ? = inconclusive; . = not tested or not shown; & = joins results of further samples; [ ] = dose if it differs, or a comment. Compounds as they come; any-hit rate near 5.1%.

nr	SMILES	ClpP mod	Menin-MLL FL inh	gsp ag	Sfp inh	D2 PAM	gsp antagonist	TRPV1 PAM
1	CC1(C)Oc2ccc(C(=O)N3CCCC3)cc2N(CC(=O)NCc2ccccc2)C1=O	-0.7%	2.5	1%	14%	-3	2%	0
2	COc1ccc(CC(=O)n2nc(-c3ccc(Cl)cc3)nc2NCc2ccco2)cc1	-9.8%	0.4	0%	-11%	-2	7%	25
3	O=C(NCc1ccc(F)cc1)c1ccccc1OCc1ccccc1	-2.0%	5.4	-24%	3%	-18	-4%	-2
4	CCC(C)NC(=O)C1c2cc(OC)c(OC)cc2C(=O)N(C)C1c1ccc(OC)cc1 (stereo not given)	-2.0%	-1.1	?	5%	-9	10%	-2
5	CCCCNC(=O)C1CCN(S(=O)(=O)N2CCCCCC2)CC1	1.7%	4.2	-2%[15.4 µM]	6%	-11	-5%	0
6	CC1(C)Cc2c(c(N3CCCC3)nc3sc4c(N5CCN(CCO)CC5)ncnc4c23)CO1	-27%	5.9	2%	-12%	-11	3%	13
7	CCC(C)N(C(=O)COC(=O)c1nc2nc(C)cc(C)n2n1)C1CCS(=O)(=O)C1 (stereo not given)	-2.1%	.	-6%	.	-5	5%	-4
8	CCc1cccc(NC(=O)c2cccc3c2C(=O)N(C2CCCCC2)C3)c1	-4.2%&-0.6%	-0.7	-20%	-1%	-4	0%	7
9	COc1cc(NC(=S)N2CCN(CCO)CC2)cc(OC)c1	.	-0.3	17%	-3%	-5	10%	-5
10	Cc1ccc(NC(=O)c2cnccn2)c(OC(F)F)c1	-1.4%	-5.2	-15%	-7%	-6	0%	10
11	COc1ccccc1/C=C(/NC(=O)c1ccc(Cl)cc1Cl)C(=O)O	.	2.1	23%	-5%	-3	1%	4
12	Cc1cc(C)c(NC(=O)/C(C#N)=C/c2ccc(OCc3ccc(F)cc3)cc2)c(C)c1	0.0%	-0.1	10%[15.4 µM]	-16%	-5	-7%	3
13	O=C(Cc1ccc(Br)cc1)NCCc1ccc(Cl)cc1Cl	1.3%	4.2	-105%[inhibitor]	15%	-11	-1%	0
14	S=C(c1c[nH]c2ccccc12)N1CCOCC1	-1.7%	4.8	12%[15.4 µM]	22µM*	-4	-12%	3
15	c1ccc(C[C@H]2CNCCN2CCc2cccc3ccccc23)cc1	-2.0%	.	1%	.	-36	-7%	?
16	O=C1CN(C(=O)COc2ccc(Br)cc2)c2ccccc2N1	.	1.0	-8%[15.4 µM]	-7%	-4	9%	3
17	O=C(Nc1cc(S(=O)(=O)N2CCOCC2)ccc1Cl)c1ccc(=O)[nH]c1	.	.	48%[15.4 µM]	.	-15	4%	0
18	CCCn1c(N)c(N(CCOC)C(=O)c2ccc(N3CCCC3=O)cc2)c(=O)[nH]c1=O	.	.	1%[15.4 µM]	.	7	4%	-13
19	COc1ccc(CNC(=O)CCCn2nc(C)c3c(C)n(-c4ccc(C)cc4)nc3c2=O)cc1OC	-5.1%&-1.3%	4.0	-11%	12%	-11	-22%	0
20	CC1(c2ccc3ccccc3c2)NC(=O)N(CC(=O)N2CCN(Cc3ccc(C#N)cc3)CC2)C1=O (stereo not given)	-4.2%	.	-12%	.	-2	-19%	4

Further records follow:
nr	SMILES	ClpP mod	Menin-MLL FL inh	gsp ag	Sfp inh	D2 PAM	gsp antagonist	TRPV1 PAM
21	Cc1cccc(NC(=O)C2(C)CC3c4ccccc4C2c2ccccc23)c1C (stereo not given)	-2.2%	-1.6	-8%	-11%	-17	-5%	-6
22	Cc1ccc(S(=O)(=O)N2CCN(C(=O)Cc3c(F)cccc3Cl)CC2)cc1	-2.5%	.	?	.	-9	-17%	2
23	CCOc1ccc(C(C)NC(=S)NCc2ccc(Cl)cc2)cc1 (stereo not given)	1.3%	1.7	-53%[inhibitor]	41%[activator]	-17	-19%	5
24	O=c1[nH]c(CSc2ccccn2)nc2c1oc1ccccc12	.	-1.7	4%	15%	-3	-2%	9
25	CCN=C1SC(C(=O)Nc2ccccc2)CC(=O)N1CC (stereo not given)	0.8%	4.8	-58%[inhibitor]	11%	3	-8%	-6
26	CN(C)CCNC(=O)/C(=N\O)c1ccccn1	-2.6%	0.4	-14%	?	-3	9%	-5
27	O=C(O)C1(c2ccccc2)CCN(S(=O)(=O)c2cccs2)CC1	12%	1.3	-18%[15.4 µM]	19%	-2	-1%	-1
28	O=C(Nc1ccccc1C(F)(F)F)N1CCC(N2CCCCC2)CC1	1.6%	3.9	-19%	11%	-9	4%	11
29	NC(=O)c1ccsc1NC(=O)c1ccc([N+](=O)[O-])o1	-1.2%	.	-5%	.	-6	-7%	.
30	CN(CC(=O)Nc1ccc(SC(F)F)cc1)C1CCCCC1	.	0.1	-15%[15.4 µM]	0%	4	.	-12
31	CC(C)OCCCN1CN(S(=O)(=O)c2ccc(Cl)cc2)c2nc3ccccc3nc21	?	0.6	?	-7%	-13	-2%	-15
32	COc1ccc(CC(=O)NNC(=S)NCC2CC2)cc1OC	.	-0.3	5%	20%	-9	8%	8
33	O=C(COc1ccccc1)N1CCN(c2ncccn2)CC1	.	0.5	-2%[15.4 µM]	-7%	3	.	21
34	O=C(N/N=C/C=N/NC(=O)c1ccco1)c1ccco1	-4.1%	.	-5%	-17%	-14	-6%	-15
35	C/C(CC1CC(C)OC1=O)=N\NC(N)=S (stereo not given)	-0.6%	0.0	0%	25µM*	-7	8%	15
36	CCc1c(C2(O)CCCCC2)[nH]c2ccc(C(F)(F)F)cc12	-21%	0.4	.	11%	-36	-7%	-13
37	Cc1ccc(C)c(CN2CCC(n3nccc3NC(=O)CCCc3ccccc3)CC2)c1	-0.6%	0.5	-1%	6%	-17	-9%	-1
38	O=C(Nc1cccc(S(=O)(=O)NC2=NCCC2)c1)c1ccc(F)cc1	1.4%	.	-9%	.	-11	4%	.
39	CCc1noc(C)c1C(=O)N1CC(C)OC(C)C1 (stereo not given)	1.4%	1.9	31%	23%	-8	5%	0
40	CNc1ccccc1C(C)(C)c1cc(-c2ccc(F)cc2)no1	-2.4%	-1.1	15%	-8%	-9	-14%	-7

(continued)
nr	SMILES	ClpP mod	Menin-MLL FL inh	gsp ag	Sfp inh	D2 PAM	gsp antagonist	TRPV1 PAM
41	CC1CCCCN1CCCNC(=O)CN1C(=O)CSc2ccc(S(=O)(=O)N3CCOCC3)cc21 (stereo not given)	-1.3%&-1.6%	.	-5%	4%	-18	3%	1
42	CC(CCN1CCN(c2ccccc2)CC1)c1ccccc1 (stereo not given)	.	4.8	-20%	-20%	-24	7%	6
43	CCCn1c(SCC(=O)N(CC)c2c(N)n(Cc3ccccc3)c(=O)[nH]c2=O)nnc1-c1ccncc1	1.7%	.	-29%	.	-6	-6%	.
44	COC(=O)C[N+](C)(C)CC#Cc1ccccc1	-2.3%	2.5	5%	12%	3	12%	-2
45	COc1cccc2cc(C(=O)C3=C(O)C(=O)N(CCN4CCOCC4)C3c3ccc(C(C)(C)C)cc3)oc12 (stereo not given)	-6.6%	.	?	2%	-20	-10%	1
46	COc1ccc(/C=C/C(=O)OCC(=O)N2CCc3ccccc32)cc1	-5.0%	.	3%	.	-4	-2%	-2
47	O=C1C2C3C=CC(CC3)C2C(=O)N1c1ccc(Br)cc1 (stereo not given)	-2.0%	.	-34%[inhibitor]	.	-2	.	.
48	CCN(CC)S(=O)(=O)c1cccc(NC(=O)c2ccc(Sc3nncn3C)c([N+](=O)[O-])c2)c1	-2.3%	-3.6	28%	7%	-1	-8%	5
49	COc1ccc(Nc2nc(N/N=C/c3ccc(N(C)C)cc3)nc(C)c2[N+](=O)[O-])cc1	-1.9%	2.1	16%	1%	-4	-2%	-1
50	N=c1c2c3c(sc2ncn1CCCO)CCCC3	0.3%	1.1	9%	6%	-4	9%	-2
51	Cc1cccc(C2c3[nH]c4ccccc4c3CCN2C(=O)c2ccc(=O)[nH]c2)n1 (stereo not given)	-1.1%	-1.5	-15%	-28%	-5	-10%	2
52	CC(=O)Nc1nc2ccccc2n1CCN1CCOCC1	-0.5%	6.0	23%	-22%	4	5%	-8
53	Cn1c(CCNC(=O)c2ccccc2Cl)n[nH]c1=S	-1.2%	0.2	20%	2%	-24	9%	-9
54	COc1cccc(C(=O)Nc2nnc(-c3ccccc3)s2)c1	?	-2.2	29%	-4%	-11	0%	3
55	Cc1c(O)c2ccccc2n(-c2ccccc2)c1=O	1.4%	.	12%[15.4 µM]	.	-6	15%	.
56	O=C(NCCN1C(=O)S/C(=C\c2ccc(OC(F)F)cc2)C1=O)[C@@H]1CCCN1C(=O)c1cccs1	-1.8%	5.4	?	-18%	-37	-4%	-18
57	C=CCn1c(CNC(=O)c2ccccc2C)nnc1SCC(=O)NC1CCCC1	-9.5%	5.4	-1%	12%	0	6%	-19
58	CCOC(=O)Cn1nnnc1C(CC)N(Cc1cccs1)Cc1cc2ccc(OC)cc2[nH]c1=O (stereo not given)	-4.8%	1.0	12%	6%	21	-31%	8
59	CCc1cc(=O)oc2cc(C)cc(OC(C)C(=O)NCC(O)c3ccccc3)c12 (stereo not given)	4.2%	-0.3	?	1%	1	-14%	-1
60	COc1ccc(/C=C2/C(=O)ON=C2C)cc1Cl	.	2.0	-10%	79µM*	-5	-4%	3
61	O=c1cc(Cc2ccc([N+](=O)[O-])cc2)[nH]c(=O)[nH]1	-2.2%	.	-6%	.	-5	3%	.

Assay outcomes deposited in PubChem by National Center for Advancing Translational Sciences (NCATS).
